Compound activity (PubChem)
Tgondii IFNg = T. gondii growth inhibition with IFN-gamma, primary screen, cell-based; Toxoplasma gondii growth in IFN-gamma-treated host cells; hits give low values; reference of the scale not given here; activity change, negative = inhibition, %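 (about 20 µM by stock and volumes)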; hit rate 3.8% among 69,000; AID 1259416, 2018;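 active means below -70%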;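 further: host cells are HeLa cells infected with Toxoplasma gondii; parasite growth read as luciferase light; one replicate is shown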
* marks the source's active call; other numbers are inactive results; i = inactive; & = joins results of further samples. Some of the compounds tested. The share of hits here may be higher or lower than overall.

Molecule	Tgondii IFNg
Cc1ccc(NCc2cccnc2N(C)Cc2ccccc2)nn1	16
O=C(Nc1ccc(F)cc1)N1CC(=O)N2[C@@H](CO)[C@H](c3ccc(-c4cccc(F)c4)cc3)[C@@H]2C1	-36
O=C(C[C@@H]1CC[C@@H](NC(=O)Nc2ccc(C(F)(F)F)cc2)[C@@H](CO)O1)NCc1cccc(F)c1	11
Cc1ccc(NC(=O)CN2C(=O)CCc3cc(S(=O)(=O)N4CCCC4)ccc32)cc1	38
CO[C@@H]1CC[C@@H]2CCN(C)C(=O)[C@H](C)N(C)C(=O)c3cccc(C#N)c3OC[C@@H]1O2	10
CN1Cc2c(C(=O)N3CCCCCC3)ncn2-c2ccccc2S1(=O)=O	3
O=C(Cn1ncc2c(N3CCOCC3)ncnc21)Nc1cccc(OC(F)(F)F)c1	-57
Cn1cnc(-c2nc(C(=O)NCCc3cccnc3)c3ccccn23)c1	5
Cn1c2c(ccc1=O)CC(NC(=O)Cc1cccs1)CC2 (stereo not drawn)	-23
Cc1nc(-c2ccccc2)sc1CCNS(=O)(=O)c1ccc(Cl)cc1	i
CCn1ncnc1CN1CC[C@@H](c2ccc3ccccc3c2)[C@H](O)C1	3
C(=C\c1ccc2ccccc2n1)/c1ccccc1	117
CCOc1ccccc1NC(=O)C(=O)NCCc1sc(-c2cccc(C)c2)nc1C	185
C[C@@H]1CN(Cc2ccc(F)cc2)[C@@H](C)CN1C(=O)c1cc2c(C(=O)C(=O)N(C)C)cn(C)c2cc1Cl	-43
CN1C(CCl)Nc2cc(Cl)c(S(N)(=O)=O)cc2S1(=O)=O (stereo not drawn)	29&13
O=S(=O)(c1ccc(Cl)s1)n1cnc2ccccc21	-49
CCc1nnc(CN(CC)C(=O)c2ccc(-n3nc(C)cc3C)cc2)o1	7
CC1NC(=O)COC12CCN(C(=O)C1CCOCC1)CC2 (stereo not drawn)	47
COc1ccccc1OCCn1cc(/C=C/C2=CCN(C)CC2)c2ccccc21	88
COc1ccc([C@@H]2N[C@H](c3cccnc3)Cc3cc(OC)c(OC)cc32)cc1OC	12
S=C(NCCc1ccccc1)N1CCOCC1	27
Cc1ccc(C)c(NC(=O)CN2CCC3(CC2)N=C(c2ccc(C)c(C)c2)C(=O)N3)c1	68
O=C1NCC2(CCN(C(=O)CC3CCc4ccccc43)CC2)O1 (stereo not drawn)	-12
Cn1cccc1C(=O)N1CCC2(CCCN(Cc3ccccn3)C2)C1 (stereo not drawn)	1
Cc1cccc(-n2ncc3c(NCCc4ccccc4)ncnc32)c1	10
CCS(=O)(=O)N1CCC2(CC1)OC(=O)C(C)=C2C(=O)NCCN1CCN(C)CC1	14
Cn1c(CSc2nc3ccccc3s2)nnc1SCC(=O)NCc1cccnc1	-6
CCn1c(CN2CCCC(n3c(=O)oc4ccc(Cl)cc43)C2)nc2ccccc21 (stereo not drawn)	-87*
Cc1oncc1C(=O)N1CCO[C@@H]2[C@H]1CC[C@H]2Oc1ncccc1F	-4
CCc1nnc(NC(=O)CSc2nnnn2C)s1	-8
CO[C@H]1CC[C@@H]2CCN(C)C(=O)CCCN(C)C(=O)c3cc(C#N)ccc3OC[C@@H]1O2	-53
Cc1nc(-c2ccc(Cl)cc2)sc1CCNS(=O)(=O)c1ccccc1F	-72*
O=C(C1CCOCC1)N1[C@@H](CO)[C@@H](c2ccccc2)C12CN(CCC(F)(F)F)C2	4
Cc1cccc(-c2nc(Cn3nnc(-c4nc(-c5ccc(OC(F)(F)F)cc5)no4)c3C)c(C)o2)c1	5
Cc1cccc(-c2nc(C)c(CCNC(=O)c3cccs3)s2)c1	i
COc1ccc2c3c([nH]c2c1)[C@H](CO)N(C)CC31CCN(C(=O)CN(C)C)CC1	59
Cc1c(C(=O)N(C)C2CCCCC2)sc2nc3ccc(N)cc3n12	-2
CCc1c(C)cc(C(=O)N2CCC3(CN(C)C(=O)O3)C2)c(=O)n1C (stereo not drawn)	-11
CCN(CC)CCCNc1nc(-c2ccccc2)nc2ccccc12	-23
O=C(O)c1cc(=O)c2c(OCC(O)COc3cccc4oc(C(=O)O)cc(=O)c34)cccc2o1	11&8
CCc1ncc2c(n1)CN(C(=O)c1cccc(OC)c1C)C2	2
C1=CCC(c2cn(Cc3nc(-c4ccccc4)n[nH]3)nn2)CC1 (stereo not drawn)	-11
c1ccc(Nc2nnc(-c3cccc4ccccc34)o2)cc1	50
COCCN1C(=O)N(C2Cc3ccccc3C2)C(=O)C12CCN(Cc1ccc(NC(C)=O)cc1)CC2	-13
CCn1c(=O)c(C(=O)Nc2ccccc2F)c(O)c2ccccc21	33
COc1ccc(CCC(=O)N2CCC(C(=O)NCCc3csc(-c4ccccc4)n3)CC2)cc1	3
CS(=O)(=O)N1CCC2C1CCC(=O)N2CCN1CCCC1 (stereo not drawn)	0
OCCn1cnc(-c2ccccc2)c1-c1ccc(C2CCCCO2)s1 (stereo not drawn)	-7
Cc1nonc1C1CCCN1C(=O)c1cn(-c2ccccc2)nn1 (stereo not drawn)	1
Cc1noc(C)c1C(=O)N1CCC(c2ccncc2)CC1	-22

(further entries)
Molecule	Tgondii IFNg
Cc1nc(C)n(C(C)CC(=O)NC(Cc2ccsc2)c2cccnc2)n1 (stereo not drawn)	130
O=C(c1cccc(F)c1)N1CC(=O)N2[C@H](C1)[C@H](c1ccc(/C=C/c3ccccc3)cc1)[C@@H]2CO	-51
Cc1ccc(S(=O)(=O)N2CCn3nnc(COCC4CC4)c3C2)cc1	2
O=C(N[C@@H]1CCC[C@H]1OCc1ccccc1)c1cc2n(n1)CCCNC2	0
Cc1cc(C)cc(NC(=O)N2CCc3nc(-c4ccccc4)sc3C2)c1	23
Cc1noc(C)c1NC(=O)Nc1ccc2c(c1)C(=O)N([C@@H](C)CO)C[C@@H](C)[C@@H](CN(C)Cc1ccc3c(c1)OCO3)OCCCC[C@@H](C)O2	-63
COc1ccc2c(c1)NC1(CCN(C(=O)Nc3cc(OC)c(OC)c(OC)c3)CC1)c1cccn1-2	172
CCOC(=O)C(CCSC)NC(=O)CN (stereo not drawn)	-26
CCOc1ccc(Nc2nc(-c3nnc(-c4ccc(C)cc4)o3)nc3ccccc23)cc1	66
Nc1cc(-c2ccco2)nn1-c1cc(C(F)(F)F)cc(C(F)(F)F)c1	136
CN(CCCn1cccn1)Cc1ccc2cccc(O)c2n1	-9
CS(=O)(=O)NCc1cn2c(n1)CN(C(=O)NC1CCCC1)CC2	305
COc1cccc(C2CCCN2C(=O)Nc2ccccc2SC)c1 (stereo not drawn)	-2
CSc1ccc(CN2CCN(C3CCN(C(C)C)CC3)C(CCO)C2)cc1 (stereo not drawn)	-5
c1cnc(N2CCC3(COCc4cnc(NCC5CC5)nc43)C2)nc1 (stereo not drawn)	-9
CCc1ccc(CNc2nc(-c3ccc(Cl)cc3)nc3ccccc23)cc1	-62
C=CCc1cc(-c2nccn2Cc2cccnc2)cc(OC)c1O	4
CCC(=O)N1CC2(CCN(Cc3ccccc3Cl)CC2)c2c([nH]c3cc(OC)ccc23)[C@@H]1CO	400
Cc1nc2ccccc2n1S(=O)(=O)c1ccc(Cl)cc1	-10
CNC(=O)CC1CC2(CCN(S(=O)(=O)c3ccccc3)CC2)Oc2ccccc21 (stereo not drawn)	-48
O=C(C[C@H]1CC[C@H]2[C@@H](COC[C@H](O)CN2C(=O)c2cnccn2)O1)N1CCN(c2ccccc2)CC1	-43
CCN(CC)CCn1ccnc1-c1cccc(O)c1	-47
COCCN1CCCC2(CCN(S(=O)(=O)C3CC3)CC2)C1=O	-3
COc1cccc(S(=O)(=O)N(C)C[C@H]2OCc3ccccc3-c3c(n(C)c4ccccc34)C(=O)N([C@H](C)CO)C[C@H]2C)c1	-62
COCCNC(=O)Cn1nc(C)c2sc(-c3ccccc3)nc2c1=O	13

Some of these compounds in order of molecular weight, low to high.
Molecule	Tgondii IFNg
CN(CCCn1cccn1)Cc1ccc2cccc(O)c2n1	-9
C=CCc1cc(-c2nccn2Cc2cccnc2)cc(OC)c1O	4
O=C(N[C@@H]1CCC[C@H]1OCc1ccccc1)c1cc2n(n1)CCCNC2	0
Cc1nc(C)n(C(C)CC(=O)NC(Cc2ccsc2)c2cccnc2)n1 (stereo not drawn)	130
CSc1ccc(CN2CCN(C3CCN(C(C)C)CC3)C(CCO)C2)cc1 (stereo not drawn)	-5
O=C(c1cccc(F)c1)N1CC(=O)N2[C@H](C1)[C@H](c1ccc(/C=C/c3ccccc3)cc1)[C@@H]2CO	-51

Random excerpt: 3 records from the list
Molecule	Tgondii IFNg
CNC(=O)CC1CC2(CCN(S(=O)(=O)c3ccccc3)CC2)Oc2ccccc21 (stereo not drawn)	-48
CCc1ccc(CNc2nc(-c3ccc(Cl)cc3)nc3ccccc23)cc1	-62
CCOC(=O)C(CCSC)NC(=O)CN (stereo not drawn)	-26

(further entries)
Compound	Tgondii IFNg
Cc1nc2ncccn2c1C(=O)NCCCc1nc2ccccc2n1C	6
Cc1cc(N2CCCN(Cc3cnc(-c4ccco4)nc3)CC2)ccn1	10
C[C@H](CO)N1C[C@H](C)[C@@H](CN(C)C(=O)Nc2ccc(-c3cccs3)cc2)OCc2cnnn2CCCC1=O	390
Cc1noc(C)c1S(=O)(=O)Nc1ccc2c(c1)C(=O)N([C@H](C)CO)C[C@H](C)[C@@H](CN(C)C(=O)NC1CCCCC1)O2	12
O=C(c1ccc2nonc2c1)N1CCN(c2ccccc2)CC1	-26
CCCC(=O)N1CC2(CCN(S(=O)(=O)CC)CC2)c2c(n(C)c3cc(OC)ccc23)[C@@H]1CO	-16
COC(=O)c1ccc(CSc2nncn2N)o1	12
O=C([C@@H]1[C@@H](CO)[C@@H]2Cn3c(cccc3=O)[C@H]1N2Cc1cocn1)N1CCCCC1	-34
C=CC(=O)N1C[C@H]2CCC(O)[C@H]2C1 (stereo partly drawn)	-1
O=C(c1c2c(-c3ccccc3)ncnc2n2ccccc12)N1CCCC1	-10
Fc1cnc(N2CCn3cc(CNc4ccccn4)nc3C2)nc1	-32
O=C(Cc1ccc(Cl)cc1)NCCc1csc(-c2ccc(F)cc2)n1	46
COc1ccccc1-c1cc(NC(=O)Cn2c(=O)cc(C)c3ccccc32)n(C)n1	4
CCOc1ccccc1C(=O)Nc1ccc(-c2nc(Cn3nc(C)c(C)c3C)c(C)o2)cc1	1
CCN1C(=O)[C@@H]2CN(C(C)=O)C[C@H]2C12CCN(C(=O)NCCc1ccccc1)CC2	-62
c1ccc(COc2cccc(-c3nccn3Cc3cccnc3)c2)nc1	-4
CCOCC(=O)N1CCCn2nnc(Cn3cccc3)c2C1	-2
CCOc1ccccc1C(=O)N1CCC(c2nc(C(=O)N3CCCC3)c(C)o2)CC1	-53
Cc1nnnn1Cc1ccc(C(=O)N2CCCC(N)CC2)cc1 (stereo not drawn)	9
Cc1ccccc1S(=O)(=O)N1CCCCN2[C@@H](CO)[C@@H](c3ccc(C#CCN(C)C)cc3)[C@@H]2C1	-41
C/C=C/c1cccc(-c2nc(C(=O)Nc3nccs3)cc3c2[C@@H](CCO)N(C(=O)NC(C)C)C3)c1	19
O=C(C[C@H]1CC[C@H]2[C@@H](COC[C@H](O)CN2C(=O)c2ccncc2)O1)Nc1ccc(-c2ccccc2)cc1	-57
CNC(=O)c1ccc(Cn2ccnc2C2CCOC(C)(C)C2)cc1 (stereo not drawn)	5
Cc1cc(-c2ccc(CC(=O)Nc3ccc(-c4cccnc4)cc3)cc2)ccn1	-2
Cc1n[nH]c(C)c1CCc1nnc(SCC(=O)O)n1C	-41
FC(F)(F)c1ccc(-c2noc(-c3csnn3)n2)cc1	53
CN(C)C(=O)N1CCC2(CC1)CC(=O)N(CC1CCCO1)c1ccccc12 (stereo not drawn)	-1
Cc1cnc2c(C(=O)NC(c3ccncc3)c3ccccc3C)cnn2c1 (stereo not drawn)	-1
CC1CCN(C(=O)c2ccc(-c3csc(C4CC4)n3)cc2)CC1	129
CCc1cccc(C)c1NC(=O)Cn1c(=O)cc(C(=O)NC)c2ccccc21	10
CN1CCOCC2(CCCN(C(=O)c3ccc4nc[nH]c4c3)C2)C1 (stereo not drawn)	18
COc1cccc(N2CCN(C(=O)C3=C(C)C(=O)OC34CCN(S(C)(=O)=O)CC4)CC2)c1	17
COCC(=O)N1C[C@H](C)[C@@H](OC)CN(C)C(=O)c2ccc(NC(=O)Nc3cccc(F)c3)cc2OC[C@@H]1C	-35
COc1ccc(CN(C)C(=O)C2CC(=O)N(CC(C)C)C2)cc1O (stereo not drawn)	17
CCN1C(=O)CCC12CCC(NC(=O)c1ccc[nH]1)CC2 (stereo not drawn)	8
CCC1CN(Cc2cnc(-c3ccco3)nc2)CCN1C(C)C (stereo not drawn)	9
CCOC(=O)c1nn(CCc2ccccc2)c2c1CN(C(=O)c1csc(SC)n1)CC2	-20
COCC(=O)N1CC2(C1)CN(S(C)(=O)=O)[C@@H](CO)c1c2c2ccc(OC)cc2n1C	61
CCC(=O)N1C[C@H](O)COC[C@H]2O[C@H](CC(=O)NCc3ccc(Oc4ccccc4)cc3)CC[C@@H]21	-9
Cc1cc(C(=O)Nc2cccc3c2O[C@@H](CN(C)C)[C@H](C)CN([C@H](C)CO)C3=O)n(C)n1	13
COCc1nc2cc(-c3cccc(-n4cccn4)c3)ccc2o1	128
COc1cc(OC)c(Nc2nc(-c3nnc(-c4ccc(C)cc4)o3)nc3ccccc23)cc1Cl	130

By substructure: the entries above containing a COOH group
Compound	Tgondii IFNg
O=C(O)c1cc(=O)c2c(OCC(O)COc3cccc4oc(C(=O)O)cc(=O)c34)cccc2o1	11&8
Cc1n[nH]c(C)c1CCc1nnc(SCC(=O)O)n1C	-41
